# Calb biofilm kill: clotrimazole potentiators killing C. albicans biofilm, primary screen, 4-compound mixtures; C. albicans biofilm persisters + clotrimazole, fluorescence viability; primary screen in compound mixtures of four per well; inhibition, % at 7.6 µM; 120,000 tested, 0.02% active;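 active means inhibition above 30.3% in the primary screen of four-compound pools, then above 30% when the compound was retested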;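 further: compounds exposed to preformed 24 h biofilms for 48 h; the number belongs to the whole pool; some results filed as inactive read as strong as hits; inactives centre near 12; 0% = biofilm with clotrimazole alone and 100% = kill control; retested singly at about 60 µM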
#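 Assay system: C. albicans biofilms / Medium: RPMI/MOPS medium, pH 7.0 / Schedule: biofilm formation 24 h, compound exposure 48 h, 37 °C / Measured by: Alamar Blue fluorescence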
# * = called active by the depositor. Only part of the results is shown. The share of hits here may be higher or lower than overall.
# Preview (3 entries):
structure	Calb biofilm kill
O=C1CCC(CCC(=O)N2CCCC(C(=O)c3cccc(C(F)(F)F)c3)C2)=NN1 (centres undefined)	17
O=C(O)c1cc(-c2ccccc2)nc2nc(N3CCCCC3)sc12	-21
COc1cc(OC)cc(-c2nc(-c3ccccc3OC)no2)c1	19

# This part in full, previewed entries included:
structure	Calb biofilm kill
O=C1CCC(CCC(=O)N2CCCC(C(=O)c3cccc(C(F)(F)F)c3)C2)=NN1 (centres undefined)	17
O=C(O)c1cc(-c2ccccc2)nc2nc(N3CCCCC3)sc12	-21
COc1cc(OC)cc(-c2nc(-c3ccccc3OC)no2)c1	19
Cc1cc(C)cc(NC(=O)N2CCCN(c3c(Cl)cncc3Cl)CC2)c1	13
O=c1[nH]c(SCc2ccccc2)nc2[nH]ncc12	13
O=C(Nc1nnc(-c2ccc3c(c2)CCCC3)o1)c1c(F)cccc1F	10
Cc1cc(C(=O)N(NC(=O)C(C)C)c2ccccc2)cs1	2
O=C1c2nccnc2C(=O)N1c1ccc(C(F)(F)F)cc1	2
CCOc1ccc2nc(COC(=O)c3cccc([N+](=O)[O-])c3)c(C(C)=O)[n+]([O-])c2c1	16
COc1ccccc1-c1c(C)nn2c(N3CCC(C)CC3)cc(C)nc12	16
CCOC(=O)c1cnc2c(c(C)nn2C)c1Oc1cc(Cl)cc(Cl)c1	13
N#C/C(=C\c1ccc(OCc2cccc(C(=O)O)c2)cc1)C(=O)NCc1ccco1	13
Cc1cccc(CSc2ncccc2C(=O)O)c1	22
Cc1ccc([N+](=O)[O-])cc1S(=O)(=O)N1CCCCC1C(=O)O (centres undefined)	24
O=S(=O)(c1cnc(Cl)c(Cl)c1)N1CCN(c2ncccn2)CC1	11
COc1ccc(S(=O)(=O)NCC(=O)O)cc1C(=O)NC1CCCCC1	9
CCOC(=O)C1(Cc2ccccc2C(F)(F)F)CCN(Cc2ccon2)CC1	28
C#CCOCCOCCOCCNc1nc(N2CCN(C(=O)[C@H]([C@@H](C)CC)n3cc([C@@H](N)CC(C)C)nn3)CC2)nc(N2CCN(C(=O)[C@H](CCCCN)n3cc([C@@H](N)C(C)CC)nn3)CC2)n1 (some centres undefined)	18
CCCN1CNc2c(c(=O)[nH]c(=S)n2CCc2ccc(OC)c(OC)c2)C1	12
COc1ccc(Nc2c(-c3ccc(OC)cc3)nc3cnccn23)cc1	9
Fc1cccc2sc(N3CCCC3)nc12	1
CN(C)S(=O)(=O)c1ccc(Cl)c(C(=O)Nc2nc3ccccc3[nH]2)c1	3
Nc1ccc(SCc2nc3cccc4c3n2CCC4)cc1	10
Cc1ccc(-c2cc(N)on2)cc1	7
CSc1nsc(N/N=C/c2ccccc2)c1C#N	8
CCc1ccc(C(=O)Cn2cnc3cc([N+](=O)[O-])ccc3c2=O)cc1	15
OCCC1CN(Cc2ccon2)CCN1CCc1ccccc1 (centres undefined)	6
O=C(Nc1cc(Cl)ccc1Cl)c1noc2c1CCCC2	17
O=C1NC[C@@H](Cc2ccc(O)cc2)N(CC2CCCCC2)C1=O	11
Cc1cccc(N2C(=O)/C(=C\c3ccc(C(=O)O)cc3)c3ccccc3C2=O)c1	6
O=C(CCCN1C(=O)/C(=C/c2cccs2)SC1=S)NNC(=O)c1ccc(F)cc1	9
Cc1cccc(-c2noc(-c3ccc4c(c3)OCO4)n2)c1	1
CC(/C=C1\N=C(SCc2ccccc2)SC1=O)=C\c1ccccc1	11
CCOc1ccc(/C=N/NC(=O)CN2CCCCCCC2)cc1	7
Cc1ccc(/C=C2/C(=O)N(c3ccccc3)C(=S)N2C)o1	7
COCCN1C(=O)N[C@H](c2cccc(C(F)(F)F)c2)C(C(=O)OC)=C1C	-3
Cc1nc(-c2ccccc2)sc1-c1ccn[nH]1	13
COc1ccc(CNCCC2(C(C)C)CCOC(C)(C)C2)cc1 (centres undefined)	3
COc1ccc(NS(=O)(=O)c2cn(C)c(=O)n(C)c2=O)c(OC)c1	17
N#C/C(=C\c1ccco1)C(=O)NCc1ccccc1	10
Cc1ccccc1NC(=O)C(c1ccccc1)C1CCCC1 (centres undefined)	-8
CCCC(c1nnnn1C(C)(C)C)N1CCN(C(=O)c2ccco2)CC1 (centres undefined)	-8
Cc1ccc(-n2c(SCC(=O)NC3CCS(=O)(=O)C3)nc3ccccc3c2=O)cc1 (centres undefined)	0
CC(=O)Nc1ccc(S(=O)(=O)N(C)c2ccc(OCC(=O)OCC(=O)N3CCCCC3)cc2)cc1	13
CC(=O)c1ccc(N(C(=O)c2ccco2)C(C(=O)NC2CCCC2)c2ccc(N3CCOCC3)cc2)cc1 (centres undefined)	16
CCN1CCN(c2c(Cl)cccc2NC(=O)c2ccc([N+](=O)[O-])cc2)CC1	17
CSc1ccc(/C=C(\C#N)C(=O)Nc2cccc(C)c2)cc1	15
CCOc1ncccc1C(=O)N(C)CC(=O)Nc1ccccc1SC	3
C/C(=N\NC(=O)c1ccc(CN2CCOCC2)cc1)c1ccc([N+](=O)[O-])cc1	14
O=C(Nc1nc(-c2cccs2)c(-c2cccs2)s1)C1CCCC1	14

# Continuation.
structure	Calb biofilm kill
CC(C1CC1)N(Cc1ccccc1)C(=O)NC(=O)c1ccccc1 (centres undefined)	24
Cc1ccc(N=Nc2c(C)[nH]n(C(N)=S)c2=O)cc1	0
COC(=O)c1sccc1NC(=S)Nc1cccc(F)c1	15
Cc1cc(C)c(O)c(-c2cc(C(=O)NCCc3ccc(S(N)(=O)=O)cc3)[nH]n2)c1	26
CCOC(=O)c1c(NC(=S)Nc2cccnc2)sc(C)c1C	5
COc1cc(/C=N/NC(=O)CC2(C)OCCCO2)ccc1OCc1ccccc1	10
Nc1ccnn1Cc1ccncc1	1
CC1(C)CC(N=Cc2c(O)n(Cc3ccc4c(c3)OCO4)c(=O)c3ccccc23)CC(C)(C)N1	13
O=C(C[N+]1(CC#Cc2ccccc2)CCCCC1)c1ccc(Cl)cc1	16
CCCCNC(=O)N(O)C1N(/N=C/c2cccnc2)C(=S)SC1(C)C (centres undefined)	9
O=C(CCn1nnc2ccccc2c1=O)N[C@@H](Cc1c[nH]c2ccccc12)C(=O)O	18
Cc1cc(C)cc(NC(=O)CSc2nc3[nH]ncc3c(=O)[nH]2)c1	5
COC(=O)CN1C2=NCCCN2c2ccccc21	16
COc1ccc(N2CCN(S(=O)(=O)c3cnc[nH]3)CC2)cc1	5
C/C(CC(=O)Nc1ccc(Cl)c(Cl)c1)=N\NC(=O)Cc1ccccc1	18
Cc1cc(NC(=O)CSc2ccc(-c3ccc4c(c3)OCO4)nn2)no1	-4
COc1ccc(C(=O)NNC(=O)c2ccc(S(=O)(=O)N3CCCCC3)cc2)cc1	11
CC(=O)Nc1ccc(OC(=O)c2ccc(Cl)cc2)cc1	9
CC(C)(C)c1ccc(OC(=O)c2ccccc2)cc1	22
O=C(NCc1n[nH]c(=S)n1-c1ccccc1)c1cccs1	20
Cc1cc(C(=O)CCl)c(C)n1CCc1ccccc1	-2
CC(=O)c1ccc(NC(=S)NCCc2ccc(S(N)(=O)=O)cc2)cc1	14
Cc1ccc(NC(=O)Cn2nc(-c3ccccc3Cl)ccc2=O)c(Br)c1	18
COC(OC)c1ccnc(-c2ccc(OC(C)=O)cc2)n1	11
CCOc1ccccc1N1CC(C(=O)Nc2ccc3c(c2)OCCO3)CC1=O (centres undefined)	9
CC1CCCN(Cc2nc(Cc3ccccc3Cl)no2)C1 (centres undefined)	14
COc1ccc([N+](=O)[O-])cc1NC(=O)COC(=O)/C=C/c1ccco1	9
Cc1ccccc1Cn1c2ccccc2c2cnn(CC(=O)NCc3ccco3)c(=O)c21	31
Cc1ccccc1-n1c(C)nnc1SCc1cc(=O)oc2ccc3ccccc3c12	18
Cc1cc(C)nc(NC(=S)Nc2cccc(Cl)c2Cl)c1	8
O=c1c([N+](=O)[O-])c(NCCN2CCCCCC2)c2ccccc2n1-c1ccccc1	9
COC(=O)c1c(NC(=O)CN2CCC3(O)CCCCC3C2c2ccc(OC)cc2OC)sc(C)c1C (centres undefined)	-16
Cc1cc(C)cc(C(=O)Nc2ccc3[nH]c(=O)[nH]c3c2)c1	19
COc1ccc(N2C(=O)C(CN3CCCCC3)C2c2ccccc2)cc1 (centres undefined)	7
COc1ccc(Cl)cc1-c1nc(N)nc(N(C)C)n1	12
C=C1CCN(C(C(=O)OC)C(C)C)S(=O)(=O)c2ccccc21 (centres undefined)	15
COC(=O)c1ccn(Cc2ccccc2Cl)n1	3
CCN1C(=O)c2ccccc2Sc2ccc(C(=O)NCCN3CCOCC3)cc21	9
Cc1ccc(NC(=O)COC(=O)CSC(=S)N2CCOCC2)cc1C	6
C=C(C)CNC(=O)c1ccc(OC2CCN(S(=O)(=O)N(C)C)CC2)cc1	20
O=C(Nc1cccs1)Nc1c(F)cc(F)cc1Br	9
CC(C)CC(N)c1cn([C@@H](CCC(=O)O)C(=O)N2CCNCC2)nn1 (some centres undefined)	15
Cn1cccc1/C=C1\SC(=Nc2ccccc2)NC1=O	15
O=C(c1cc(S(=O)(=O)N2CCCCC2)ccc1N1CCOCC1)N1CCN(Cc2ccccc2)CC1	12
O=C(CSc1ccc2ccccc2n1)NCCC1=CCCCC1	16
COc1cc(/C=N/NC(=O)C(N)=O)cc(OC)c1O	-30
CCOC(=O)Cn1c(=O)cc(C)c2cccc(C)c21	18
CC1(C)OCC(COC(=O)Nc2cccnc2)([N+](=O)[O-])CO1	12
Cc1nn(-c2ccccc2)c(Cl)c1/C=N\NC(=O)c1cncc(Br)c1	13
CNc1ncc(C(=O)c2ccc(Br)cc2)s1	14

# Filtered by structure, the entries above containing a cyano group (four)
structure	Calb biofilm kill
N#C/C(=C\c1ccc(OCc2cccc(C(=O)O)c2)cc1)C(=O)NCc1ccco1	13
CSc1nsc(N/N=C/c2ccccc2)c1C#N	8
N#C/C(=C\c1ccco1)C(=O)NCc1ccccc1	10
CSc1ccc(/C=C(\C#N)C(=O)Nc2cccc(C)c2)cc1	15

# The listing continues.
structure	Calb biofilm kill
Cc1cc(NC(=O)NC(C(F)(F)F)C(F)(F)F)no1	7
Cc1ccc(NC(=O)CSc2n[nH]c(-c3ccco3)n2)c(C)c1	7
Cc1ccccc1NC(=O)COC(=O)C1(C)CC1(Cl)Cl (centres undefined)	-18
CCOc1ccc(NC(=O)Nc2ccc(NC(C)=O)cc2)cc1	10
COC(=O)Cc1ccc(NC(=S)NCc2ccc(F)cc2)cc1	3
O=C(N/N=C/c1ccncc1)c1ccc(NC(=O)c2ccc(Cl)cc2)cc1	7
O=c1[nH]c(Cc2cccs2)nc2scc(-c3ccc(Cl)cc3)c12	7
Cc1ccc(NC(=S)Nc2cc(C(=O)O)ccc2N2CC3CC(C2)c2cccc(=O)n2C3)cc1C (centres undefined)	12
C=CCn1c(SCC(=O)N2N=C(c3ccco3)CC2c2ccco2)nnc1-c1ccncc1 (centres undefined)	18
O=C(Nc1ccc(S(=O)(=O)N2CCOCC2)cc1)c1ccc(Cl)cc1	22
CCN1CCC(NC(=O)Nc2ccc(F)cc2F)CC1	29
COc1ccccc1Nc1nc(NCc2ccco2)c2ccccc2n1	25
CC(=O)c1ccc(NC(=O)CSc2nccn2C)cc1	12
O=C(COC(=O)CCc1ccc(S(=O)(=O)N2CCOCC2)cc1)NCc1ccccc1	10
Cc1ccc(CSCCNC(=O)c2ccccc2)cc1	7
COc1ccc(Cl)cc1C(=O)O/N=C(\N)c1ccc(Cl)cc1	5
COc1ccc(OCC(=O)Nc2ccc(N3CCN(C(=O)c4ccccc4C)CC3)cc2)cc1	10
CCc1c(C)nc(SCC(=O)N2CCN(c3ccccc3OC)CC2)[nH]c1=O	-1
CCOc1ccc(CN(C)C(=O)c2cccnc2OCC)cc1OC	12
CCOc1ccc(C(=O)NC(=S)Nc2ccc(NC(=O)CC)cc2)cc1[N+](=O)[O-]	14
Cc1nc(SCc2ccccc2F)c2cnn(-c3ccccc3)c2n1	5
Cc1ccc(-n2ncc(C(=O)N3CCc4ccccc4C3)c2NC(=O)c2ccco2)cc1C	5
Cn1c(=O)c2c(ncn2CC(=O)N/N=C/C=C/c2ccco2)n(C)c1=O	19
COc1ccccc1Nc1nc(-c2c(C)nc3ncccn23)cs1	20
CCOc1ccc(N2CC(C(=O)NCCN3C(=O)S/C(=C\c4ccc(OC)cc4)C3=O)CC2=O)cc1 (centres undefined)	20
COc1ccccc1CCNC(=O)c1cc(-c2ccncc2)nc2ccc(Br)cc12	8
Cc1cc(C(=O)COC(=O)c2ccc[nH]c2=O)c(C)n1-c1ccc(Br)cc1	16
CCOc1ccc(NC(=O)C(C)NS(=O)(=O)c2ccc(NC(C)=O)cc2)cc1 (centres undefined)	14
O=C(O)c1cnn(-c2nc(-c3ccc(F)cc3)cs2)c1C(F)(F)F	18
NC1=NC(c2cn[nH]c2-c2cccc(F)c2)n2c(nc3ccccc32)N1 (centres undefined)	9
CCOC(=O)c1[nH]c(C)c(C(=O)OC)c1C	-6
O=C(NN1CCCCC1)c1cnn2c(C(F)F)cc(-c3ccccc3)nc12	7
COc1ccc(NC(=O)CCN2CC(C)OC(C)C2)c(OC)c1 (centres undefined)	14
CCCCCc1nc2sc3c(c2c(=O)n1NC(=O)c1ccc([N+](=O)[O-])cc1)CC(C)(C)OC3	23
O=C1CCCC(O)=C1N=Nc1ccc(C(=O)O)cc1	28
